Compound activity as filed in PubChem BioAssay.
Vaccinia Venus: inhibitors of vaccinia virus (Venus reporter); Vaccinia virus Venus reporter expression, fluorescence; 0.46% of 330,000 active; AID 720580; Potency, µM (top dose mostly 36.5 µM), for the others: at the highest dose activity change, negative = inhibition, usual class: inhibitors; active means well fitted inhibition curve with a large enough effect; inconclusive means small, poorly fitted or top-dose-only effect; inactive means no such curve, though single readings can be large or run the other way; tested in A549 cells; further: nearly all actives have a fitted effect of over 30% in size; inactives centre near -10
VACV mCherry inh: inhibitors of vaccinia virus infection (mCherry reporter signal); 0.63% of 310,000 active; Potency, µM (highest dose often 36.5 µM), for the others: at the top dose activity change, negative = inhibition, actives largely listed as inhibitors; Vaccinia virus mCherry reporter infection, fluorescence; about a quarter of the inactives have no number; AID 720579; active = well fitted inhibition curve with a large enough effect; inconclusive = small, poorly fitted or top-dose-only effect; inactive = no such curve, though single readings can be large or run the other way; tested in A549 cells; further: nearly all actives have a fitted effect of over 35% in size; inactives centre near -10
Active calls of the source: *; i = inactive; u = inconclusive; x = no result given; [ ] = another dose, or the depositor's remark. On the % scale 0 is the no-effect control and ±100 the full control effect; potency means the concentration at half of the fitted maximal effect.

The opening two entries as a preview:
smiles | Vaccinia Venus | VACV mCherry inh
COc1cc(NC(=O)CN2c3ccccc3S(=O)(=O)c3ccccc32)cc(OC)c1 | 3% | -5%
CCCCn1c(N)c(N(CC(C)C)C(=O)CC(NC(=O)c2ccccc2)c2ccccc2)c(=O)[nH]c1=O (centres undefined) | -7% | -12%

The list itself (from the top)
smiles | Vaccinia Venus | VACV mCherry inh
COc1cc(NC(=O)CN2c3ccccc3S(=O)(=O)c3ccccc32)cc(OC)c1 | 3% | -5%
CCCCn1c(N)c(N(CC(C)C)C(=O)CC(NC(=O)c2ccccc2)c2ccccc2)c(=O)[nH]c1=O (centres undefined) | -7% | -12%
Cc1cccc(NC(=O)CNC(=O)C23CC4CC(CC(Cl)(C4)C2)C3)n1 | -15% | -14%
COc1ccc(N(CC(=O)Nc2cc(C)cc(C)c2)S(=O)(=O)c2ccccc2[N+](=O)[O-])c(OC)c1 | -6% | -4%
CC1=C(C(=O)Nc2cc(C(=O)N3CCN(c4cccc(C)c4C)CC3)ccc2C)SCCO1 | -6%[7.34 µM] | -18%[7.34 µM]
CC(=O)N/C(=C\c1ccccc1)C(=O)OCC(=O)c1c(N)n(C)c(=O)n(C)c1=O | -9% | -19%
Cc1ccc(NC(=O)NC2=N/C(=C(/C#N)C(=O)N3CCCC3)c3ccccc32)cc1 | -15% | -22%
CC(C)(C)c1ccc(CSc2nnc(-c3ccccn3)n2Cc2ccco2)cc1 | -16% | -27%
Cc1ccc2cc(C=C(C#N)C#N)c(N3CCCCC3)nc2c1 | -10% | -19%
O=S(=O)(C(=CNc1ccccc1)S(=O)(=O)c1ccccc1)c1ccccc1 | -10% | i
COc1cccc(NS(=O)(=O)c2ccc3c(c2)CCCN3C(=O)C2CCC2)c1 | -15% | -27%
O=C(NC(=S)Nc1ccccc1)c1cncc(C#Cc2ccccc2)c1 | 5% | -15%
Cn1cccc1C(=S)N1CCOCC1 | 0% | -13%
COc1ccccc1CCn1cnc(C)c1CC(C)C | -1% | 7%
Cc1ccnc(SCC(=O)NC2CC2)n1 | -11% | -15%
Cc1nnc(NS(=O)(=O)c2ccc(Br)cc2)s1 | 0% | i
O=C(Nc1ccc(F)cc1)C(c1ccnc2ccccc12)N1CCN(C(=O)c2ccco2)CC1 (centres undefined) | -29% | u
COc1ccc(Cc2noc(=O)[nH]2)cc1 | -2% | i
Cc1nc2ccc(NC(=O)c3ccc(S(=O)(=O)N4CCOCC4)cc3)cc2s1 | u | x
COC(=O)[C@H](CCSC)NC(=O)Cn1cnc(C(=O)Nc2ccc(C)c(C)c2)n1 | 0% | i
OCc1cc(-c2ccccn2)no1 | -5% | -11%
COc1ccccc1C(=O)NNC(=O)CCC(=O)NCc1ccccc1 | -3% | -16%
CC(=O)c1ccc(OC(NC(=O)c2ccco2)C(Cl)(Cl)Cl)cc1 (centres undefined) | -3% | -2%
CCOC(=O)CN=C1CC(C)(C)CC2=C1Sc1ncnc(N(C)C)c1N2 | -1% | -11%
Cc1cc(Nc2ccc3c(c2)OCCO3)c2ccccc2n1 | -14% | -28%

3 compounds already listed, arranged by formula weight, rising.
smiles | Vaccinia Venus | VACV mCherry inh
Cc1ccc(NC(=O)NC2=N/C(=C(/C#N)C(=O)N3CCCC3)c3ccccc32)cc1 | -15% | -22%
CC1=C(C(=O)Nc2cc(C(=O)N3CCN(c4cccc(C)c4C)CC3)ccc2C)SCCO1 | -6%[7.34 µM] | -18%[7.34 µM]
CCCCn1c(N)c(N(CC(C)C)C(=O)CC(NC(=O)c2ccccc2)c2ccccc2)c(=O)[nH]c1=O (centres undefined) | -7% | -12%

Continuation:
smiles | Vaccinia Venus | VACV mCherry inh
COc1ccc(C(=O)c2cn(Cc3ccccc3F)c3cc4c(cc3c2=O)OCO4)cc1 | -12% | -2%
CS(=O)(=O)N1N=C(c2cccs2)CC1c1ccc(F)cc1 (centres undefined) | -12% | -10%
C[C@H](CO)N1C[C@H](C)[C@@H](CN(C)C(=O)Nc2ccc3c(c2)OCCO3)OCc2cnnn2CCCC1=O | -5% | -29%
Cc1cccc(CNC(=O)c2oc3c(c2C)-c2nn(Cc4ccccc4Cl)cc2CC3)c1 | -27% | -29%
Cc1ccccc1-n1nc(C)c2c1NC(=O)CSC2c1ccc(N(C)C)cc1 (centres undefined) | -8% | -15%
Nc1c(C(=O)Nc2ccccc2)sc2nc3c(c(-c4ccco4)c12)CCCC3 | -28% | u
COc1ccc2nc(NC(=O)c3ccc(Br)s3)sc2c1 | -26% | u
O=C(CSc1nnc(NC(=O)c2ccccc2C(=O)O)s1)Nc1ccccc1Cl | -12% | -25%
COc1ccccc1N(CC(=O)NCCSc1ccccc1)S(=O)(=O)c1ccccc1 | -20% | -11%
Cc1nn(C)c(C)c1/C=N/NC(=O)CCn1nc(C)c([N+](=O)[O-])c1C | -13% | i
CCC(C)NCC(=O)Nc1ccc(S(N)(=O)=O)cc1 (centres undefined) | -7% | -14%
Cc1ccc(-n2c(=O)c3c(C)c(C(=O)N(C)C)sc3n(CC(=O)N(C)c3ccccc3)c2=O)cc1C | -4% | -1%
Cc1nn(C(=O)c2cccc(Cl)c2)c(C)c1S(=O)(=O)N1CCOCC1 | -9% | -11%
CCCCCN(C(=O)CCC(=O)OCc1cccc(Cl)c1)c1c(N)n(CCCC)c(=O)[nH]c1=O | -25% | -12%
COc1cc(OC)c(NC(=O)CCc2c(C)nc3cc(-c4ccccc4OC)nn3c2C)cc1Cl | -10% | -16%
Cc1ccc(-c2onc(C)c2C)cc1S(=O)(=O)Nc1ccc(Cl)cn1 | -10% | i
Cc1cc(Cl)nc2ccc(Cc3ccc4nc(Cl)cc(C)c4c3)cc12 | -24% | i
CCCCNC(=O)C1(C)CCN1C(=O)c1ccc(C(F)(F)F)nc1C (centres undefined) | 6% | 2%
CCCCCCC(=O)N/N=C/c1c(O)n(C2CC2)c(=S)[nH]c1=O | -8% | -13%
Cc1nnc(NC(=O)CSc2nnc3c(n2)[nH]c2ccccc23)s1 | 5% | -1%
CC[C@@H](C)[C@@H]1CN([C@@H](C)CN2CCC[C@H]2CN2C(N)=NC[C@H]2CC(C)C)C(=N)N1CCCC1CCCC1 | -13% | i
CS(=O)(=O)Nc1ccc2c3c(cccc13)CC2 | -16% | x
CCc1ccc(NC(=O)CCCc2nnc3n(CC(C)C)c(=O)c4sccc4n23)cc1 | -4% | -5%
COc1ccccc1C1CC(=O)Oc2cc(C)c(Br)c(C)c21 (centres undefined) | -17% | -3%
Cc1nnc(SCc2nc(-c3ccc(Cl)cc3)no2)n1-c1ccc(F)cc1 | -12% | -15%

Single records (already shown). Order of values: Vaccinia Venus, VACV mCherry inh
Record of CCCCCN(C(=O)CCC(=O)OCc1cccc(Cl)c1)c1c(N)n(CCCC)c(=O)[nH]c1=O = -25%, -12%
Record of O=C(CSc1nnc(NC(=O)c2ccccc2C(=O)O)s1)Nc1ccccc1Cl = -12%, -25%

Other entries follow.
smiles | Vaccinia Venus | VACV mCherry inh
COc1ccc(CNC(=O)c2c(C)cc(=O)oc2C)cc1 | 1% | -5%
Cc1cc([N+](=O)[O-])nn1Cc1ccc(C(=O)N/N=C/c2ccc(N(C)C)cc2)cc1 | -25% | u
Cc1cccc(N2CCN(C(=O)c3ccc4[nH]c(C)c(C)c4c3)CC2)c1C | -29% | -18%
COc1ccc(C(=O)N/C(=C/c2ccc(Cl)cc2)C(=O)NCc2ccncc2)cc1 | -16% | i
CNC(=O)NC(=O)C(C)OC(=O)c1c(C)noc1C (centres undefined) | -2% | -15%
CCOc1ccccc1OC(C)C(=O)Nc1ccc(S(=O)(=O)N2CCCC2)cc1 (centres undefined) | -11% | -16%
Cc1ccc(S(=O)(=O)N2CCC(=O)N(CCOCc3cccc(C)c3)CC2)cc1 | -17% | u
CCC(=O)Nc1cccc(NC(=S)NC(=O)Cc2ccccc2)c1 | -9% | -19%
Cc1ccccc1N1CCN(S(=O)(=O)c2cccs2)CC1 | -13% | -6%
Cc1ccc(NS(=O)(=O)c2cccc(C(=O)N3CCN(c4ncccn4)CC3)c2)cc1 | -15% | -5%
N/C(=N\OC(=O)c1ccccc1)C(C(=O)NOC(=O)c1ccccc1)C1CCCCC1 (centres undefined) | -13% | i
CCC(C)[C@H](NC(=O)Nc1ccc(Oc2ccccc2)cc1)C(=O)O (some centres undefined) | -11% | -19%[1.46 µM]
CCN(CC)CCN1C(=O)c2oc3ccc(F)cc3c(=O)c2C1c1ccncc1 (centres undefined) | -1% | -14%
CC1Cc2ccccc2N1C(=O)CN1C(=O)NC(C)(CCc2ccccc2)C1=O (centres undefined) | -16% | -5%
Cc1ccc(N2CC(C(=O)Nc3nnc(SCc4ccccn4)s3)CC2=O)cc1 (centres undefined) | -4% | -15%
COc1ccc(C2CC(=O)N(CC(=O)Nc3ccc(C)c(Cl)c3)c3ccccc3S2)cc1OC (centres undefined) | u | u
COc1ccc(CCNC(=O)C2C3CCC(C3)C2C(=O)O)cc1OC (centres undefined) | -3% | -6%
O=C(Nc1cc(S(=O)(=O)N2CCOCC2)ccc1N1CCCC1)c1cnccn1 | -7% | -10%
CCC(=O)c1ccc(OC)c(OC)c1O | -8% | i
COc1cc(C)c(NC(=O)C(=S)N2CCCC2)cc1C | -7% | -14%
CC(=O)N(C(C)=O)c1ccc2c(c1)OCCO2 | -5% | -15%
Cc1ccc(NC(=O)CN2C(=S)NC(C)(C)CC2C)cc1Cl (centres undefined) | -24% | -10%
CCCCNC(=O)CCn1c(=O)c2ccccc2n(Cc2ccc(F)cc2)c1=O | -10% | -5%
COc1ccc(CCNC(=O)C(=O)NCC2OCCN2S(=O)(=O)c2ccc(F)cc2)cc1 (centres undefined) | -21% | -1%
O=C(NNC(=O)C12CC3CC(CC(C3)C1)C2)c1ccccc1F | -9% | -9%

Later entries.
smiles | Vaccinia Venus | VACV mCherry inh
CN(C)C1=NC[C@H](Cc2ccccc2)N1CC1CCC(C(C)(C)C)CC1 (some centres undefined) | -9% | -11%
CCOCCn1c(=O)c2c(nc3n2CC(C)CN3Cc2ccccc2)n(C)c1=O (centres undefined) | -6% | 3%
Cc1cc(C(=O)N/N=C/c2cc(Br)cc([N+](=O)[O-])c2O)c2ccccc2n1 | -23% | -16%
N#Cc1c(N)n(-c2ccc(N)cc2)c2nc3ccccc3nc12 | -14% | 0%
O=C(Nc1ccc2oc(-c3ccccc3)nc2c1)c1ccncc1 | -6% | x
CCCCC(CC)C(=O)NCc1ccc(F)cc1 (centres undefined) | -15% | i
CCn1cc(C(=O)NCCc2ccc(Cl)cc2)c(=O)c2cc(S(=O)(=O)N(C)C3CCCCC3)ccc21 | u | u
COCCn1nnnc1C(c1cccc(C(F)(F)F)c1)N1CCOCC1 (centres undefined) | -4% | -9%
CC(=O)Nc1ccc(NC(=O)[C@@H]2CCCN2S(=O)(=O)c2ccc3c(c2)OCCO3)cc1 | 0% | -10%
CN(c1ccccc1)S(=O)(=O)c1ccc(C(=O)Nc2ccncc2)cc1 | -18% | -2%
COc1cc2c(c(OC)c1O)C(=O)CO2 | -8% | -1%
COc1ccc(C)cc1NC(=O)CSc1nc(=O)[nH]c2c1CCCC2 | -1%[7.34 µM] | -2%[7.34 µM]
O=C(CSc1nnc(CNc2ccccc2)o1)N1CCCc2ccccc21 | -11% | -19%
CCOC(=O)c1ccccc1NC(=S)N1CCC(N2CCCCC2)CC1 | -12% | -12%
CC(=O)c1cccc(NC(=O)CSc2nnc3ccc(-c4ccc(C)cc4)nn23)c1 | -28% | -17%
